VDR inh: Inhibitors of the vitamin D receptor (VDR): qHTS; VDR-SRC2-3 peptide fluorescence polarization, 2 h; hit rate 0.93% among 400,000; Potency, µM, for the others: max response, negative = inhibition, most hits filed as inhibitors; AID 504847, 2011; active = well fitted inhibition curve with a large enough effect; inconclusive = small, poorly fitted or top-dose-only effect, or another doubt; inactive = no such curve, though single readings can be large or run the other way; also: series mostly up to about 120 µM
Target sequence (P11473 whole entry, looked up): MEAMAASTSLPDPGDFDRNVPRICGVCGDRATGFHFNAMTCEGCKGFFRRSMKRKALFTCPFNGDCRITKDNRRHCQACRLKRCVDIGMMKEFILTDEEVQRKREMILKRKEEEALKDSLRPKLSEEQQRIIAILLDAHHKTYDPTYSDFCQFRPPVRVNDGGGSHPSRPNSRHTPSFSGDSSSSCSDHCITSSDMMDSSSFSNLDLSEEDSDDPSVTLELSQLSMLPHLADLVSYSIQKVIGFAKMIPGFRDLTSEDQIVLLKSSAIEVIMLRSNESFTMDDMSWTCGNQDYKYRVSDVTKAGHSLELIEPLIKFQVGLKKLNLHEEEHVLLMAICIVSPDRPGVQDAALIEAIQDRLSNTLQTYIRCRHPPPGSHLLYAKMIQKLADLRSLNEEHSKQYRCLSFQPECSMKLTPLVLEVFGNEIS
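Two reagent solutions held at 4 deg C in the dark were dispensed, compounds pinned at 23 nl, and the mixture incubated 2 h at room temperature. Read-out: fluorescence polarization of VDR–SRC2-3 peptide binding.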
The depositor's hits bear a star; ? = inconclusive; & = joins results of further samples; [ ] = dose if it differs, or a comment. % is scaled to controls: 0 for no effect and ±100 for the full control effect; potency is read from the fitted curve at half-maximal effect. The list is partial (hit frequency here may not be typical).

VDR inh | SMILES
-9.0% | O=C(COC(=O)CCCN1C(=O)c2cccc3cccc(c23)C1=O)NC1CCS(=O)(=O)C1 (configuration not stated)
-12.9% | COC(=O)NNC(=O)c1ccc(C)c(Br)c1
20.5% | CCOC(=O)N1CCN(S(=O)(=O)c2ccc(Br)s2)CC1
-8.0% | CC1=C(C(=O)Nc2cccc(C(=O)NCc3ccccc3C)c2)SCCO1
-15.4% | CCN(CC)S(=O)(=O)c1cc(C(=O)Nc2cc(S(=O)(=O)N3CCOCC3)ccc2N2CCCC2)ccc1F
2.6% | CCOC(=O)C1CCN(C(=O)CSc2cc(=O)n(C)c3ccccc23)CC1
-12.4% | O=C(CCl)Nc1cc(-c2ccccc2)nn1-c1ccccc1
-9.3% | CC1(c2nnc(-c3ccc(F)cc3)o2)CC(c2ccc(Cl)cc2)=NO1 (configuration not stated)
-12.7% | CCC(C)C(=O)OCC1(c2ccc(C)cc2OC(=O)C(C)C)CO1 (configuration not stated)
-1.3% | CC1CCN(C(=S)NC(=O)C2CCCCC2)CC1

Three entries out of the list above, sorted by the value under VDR inh, largest number first:
VDR inh | SMILES
20.5% | CCOC(=O)N1CCN(S(=O)(=O)c2ccc(Br)s2)CC1
-12.4% | O=C(CCl)Nc1cc(-c2ccccc2)nn1-c1ccccc1
-15.4% | CCN(CC)S(=O)(=O)c1cc(C(=O)Nc2cc(S(=O)(=O)N3CCOCC3)ccc2N2CCCC2)ccc1F

For reference, part of the list above:
VDR inh | SMILES
-15.4% | CCN(CC)S(=O)(=O)c1cc(C(=O)Nc2cc(S(=O)(=O)N3CCOCC3)ccc2N2CCCC2)ccc1F
2.6% | CCOC(=O)C1CCN(C(=O)CSc2cc(=O)n(C)c3ccccc23)CC1
-12.4% | O=C(CCl)Nc1cc(-c2ccccc2)nn1-c1ccccc1
-9.3% | CC1(c2nnc(-c3ccc(F)cc3)o2)CC(c2ccc(Cl)cc2)=NO1 (configuration not stated)
-12.7% | CCC(C)C(=O)OCC1(c2ccc(C)cc2OC(=O)C(C)C)CO1 (configuration not stated)
-1.3% | CC1CCN(C(=S)NC(=O)C2CCCCC2)CC1

New compounds follow
VDR inh | SMILES
5.9% | COc1cc(-c2oc3cc(O)ccc3c(=O)c2O)ccc1O
-11.7% | CCN1C(=O)C(O)(CC(=O)c2ccc(-n3cccc3)cc2)c2ccccc21 (configuration not stated)
1.1% | CCOc1cc(NC(=S)NCC2CCCO2)c(OCC)cc1NC(=O)c1ccc(C)cc1 (configuration not stated)
-3.0% | COC(=O)/C(=C\c1ccc2c(c1)c1ccccc1n2C)NC(=O)c1ccccc1
0.6% | COc1ccc(CCNC(=O)C(=O)NCC2OCCN2S(=O)(=O)c2ccccc2)cc1 (configuration not stated)
-10.4% | FC(F)(F)Oc1ccc(Nc2nc3ccccc3o2)cc1
-16.8% | Cc1ccc(CCNC(c2ccc(F)cc2)c2nnc(-c3ccccc3Cl)o2)cc1 (configuration not stated)
-8.4% | CCOC(=O)/C(=N/Nc1ccc(Cl)cc1)Sc1nnnn1-c1ccc(C)cc1
-4.3% | CC1c2nc3ccccc3n2C(CC(=O)NCCCN2CCOCC2)C(=O)N1Cc1ccccc1 (configuration not stated)
4.5% | COc1ccccc1CNC(=O)COC(=O)c1ccncc1
6.1% | COc1cccc(C(=O)NOCc2ccccc2)c1OC
6.3% | O=C(Nc1ccc(Cl)cc1F)c1cc(S(=O)(=O)NC2CCCCCC2)ccc1F
11.0% | CCOc1ccc(-c2cc(-c3nc(-c4ccc(C)cc4)no3)[nH]n2)cc1
18.8% | COc1ccc(OC)c(C2=NOC(C(=O)Nc3cccc(C(C)=O)c3)C2)c1 (configuration not stated)
-8.1% | Cc1ccc(Cn2ccn(Cc3ccccc3F)c(=O)c2=O)cc1
-8.4% | Cc1ccc2c(c1)N(C(=O)CCC(=O)NCc1cccc(Cl)c1)CC(C)O2 (configuration not stated)
-17.7% | Sc1nnc(-c2ccc(Cl)cc2)n1Cc1ccccc1
-25.2% | S=c1[nH]nc(CN2CCCC2)n1Cc1ccccc1
7.2% | Cc1nnc(SCC(=O)NC(=O)NC2CCCC2)n1N
-1.3% | O=C(NC1CC1)c1ccc2snnc2c1
6.9% | Cc1ccc(C(=O)OCC(=O)Nc2sc3c(c2C#N)CCC3)cc1
? | O=C1C2CC=CCC2C(=O)N1CC1CCCO1 (configuration not stated)
12.9% | Cn1c2ccc(F)cc2c2ncn(Cc3ccccn3)c(=O)c21
8.7% | O=C(CSc1nnc(-c2cccs2)o1)Oc1ccccc1Cl
-13.9% | O=C(NNC(=O)c1cccc(-n2cccc2)c1)c1ccc(F)cc1
14.8% | CCCOc1ccc(C(=O)N(Cc2cccs2)c2ccc(C)cc2)cc1
-6.4% | O=C(Nc1ccccc1)C1=C[C@H](c2ccc(C(F)(F)F)cc2)C[C@H](OCc2ccc(CO)cc2)O1
20.8% | Cc1nn(-c2ccccc2)c(Cl)c1C(=O)Nc1nnc(C2CCCCC2)s1
33.3%[activator] | Cc1onc(-c2c(Cl)cccc2Cl)c1C(=O)N1CCOCC1
-4.3% | COc1ccc(C(=O)NC(=S)Nc2ccc([N+](=O)[O-])cc2C)cc1OC
-14.8% | O=C(CCC(=O)c1ccc(F)cc1)Nc1ccccc1Cl
7.6% | COc1cccc(C(=O)OCn2nnc3ccccc3c2=O)c1
-6.0% | COc1cccc(NC(=O)COC(=O)CCn2c(C)csc2=O)c1
0.1% | O=C(CSc1nnc(-c2cccc(S(=O)(=O)N3CCCC3)c2)n1-c1ccccc1)Nc1ccc(C(=O)O)cc1
70.8µM* | N#CC1c2ccccc2C=CN1C(=O)N(c1ccccc1)c1ccccc1 (configuration not stated)
-5.1% | CCCNS(=O)(=O)c1ccc(NC(=O)Cc2cccs2)cc1
-12.7% | CNC(=O)Nc1ccc2nc(C)sc2c1
-9.8% | Oc1ccc2ccccc2c1CN1CCN(c2ccccc2)CC1
-3.5% | CCOC(=O)[C@@H]1[C@H]2COc3cc(OC)ccc3[C@@H]2N2C(=O)N(c3ccc(Br)cc3)C(=O)[C@@]12C
13.0% | Cc1ccc(CCNC(=O)C2CCCN(C(=O)N(C)C)C2)cc1 (configuration not stated)
-15.4% | COc1ccccc1C1CC(=O)n2c(nc(-c3ccccc3)c2-c2ccccc2)S1 (configuration not stated)
6.3% | Cc1nc(-c2cccc(S(=O)(=O)N3CCC(C)CC3)c2)cs1
3.3% | CC(C)(C)C(=O)Nc1ccc2c(c1)-c1cc(NC(=O)C(C)(C)C)ccc1C2
-1.2% | CC(=O)n1nc(-c2ccccc2)nc1NCc1ccc(N(C)C)cc1
0.4% | COC(=O)CCSCC(=O)N1N=C(c2ccc(Br)cc2)CC1c1cccc(OC)c1OC (configuration not stated)
-12.9% | Cc1cc(Br)ccc1OCC(=O)NC1CCCC1
-14.6% | O=C(CSc1ncccn1)NCc1ccccc1Cl
-0.9% | COc1ccccc1CNC(=O)CC1N=C2c3ccccc3N=C(SCC(=O)Nc3ccc(F)cc3)N2C1=O (configuration not stated)
-0.7%&12.3% | COc1ccc(S(=O)(=O)c2c(O)c3ccc(C(=O)Nc4ccccc4)cc3[nH]c2=O)cc1
21.2% | COC(=O)C(C)(C)ONC(=O)Nc1ccccc1Cl

(further entries)
VDR inh | SMILES
-17.0% | CC(=O)OCC(NC(=O)C(Cc1ccccc1)NC(=O)OC(C)(C)C)C1OC(n2cc(F)c(=O)[nH]c2=O)C(OC(C)=O)C1OC(C)=O (configuration not stated)
-1.1% | CCS(=O)(=O)N1CC(=O)N(c2cc(Cl)ccc2C)C(C)(C(=O)NC2CCCCCC2)C1 (configuration not stated)
-16.5% | Cc1nnc(NC(=O)C2CCN(c3cnccn3)CC2)s1
3.7% | COc1ccc(Cl)cc1NC(=O)C1CCCN(c2ncnc3c2nc2n3CCCCC2)C1 (configuration not stated)
1.1% | COc1ccc(C(C)=O)cc1COc1ccccc1[N+](=O)[O-]
5.9% | COc1cccc(-c2ccc(-c3noc(-c4ccccc4F)n3)c(OC)n2)c1
13.6% | CC(C)(C)OC(=O)N(Cc1ccccc1)Cc1ccc(OCc2cccc(NC(=O)c3ccccc3)c2)cc1
-25.2% | CC(C)(C)c1cc(CCC(=O)NCC2CCCO2)cc(C(C)(C)C)c1O (configuration not stated)
32.4%[activator] | O=C(NCC1CCCCC1)c1cc(S(=O)(=O)N2CCCCC2)ccc1N1CCOCC1
-9.4% | Cc1cc(C)c2c3c(c(-c4ccccc4)n2n1)c(=O)n(C)c(=O)n3C
-15.9% | COc1ccc(S[C@@H](CCN2CC[C@H](C)CCC2=O)c2ccccc2)cc1
1.7% | Cc1ccc(CCNS(=O)(=O)c2cc(-c3cc(C)no3)ccc2C)cc1
1.0% | CCOc1ccc(CCNC(=O)CSCC(=O)Nc2ccc(OC)cc2)cc1OCC
8.6% | CCCCCCCN[C@H]1CCC[C@@H]1CCCCCCC(=O)O
-4.6% | CCOC(=O)C1CCCN(C(=O)c2cc3c(=O)[nH]c4ccc(C)cc4c3s2)C1 (configuration not stated)
-6.7% | Cc1ccc(CNC(=O)CN(C)S(=O)(=O)c2ccc(F)cc2)cc1
17.2% | CCOc1ccc(Cl)cc1S(=O)(=O)NCc1ccccn1
-5.2% | Cc1cc(C(C)(C)C)cc(C)c1CCNC(=O)c1c(C)noc1C
9.6% | N#Cc1cc2c(nc1SCc1ccccc1)CCC2
12.1% | COc1cc(Cl)c(C)cc1NC(=O)c1cccc(OC)c1OC
-7.3% | COC(=O)c1cccc(S(=O)(=O)N2CCC(NC(=O)NC34CC5CC(CC(C5)C3)C4)CC2)c1
9.7% | CC(NNC(=S)N1CCN(c2ccccn2)CC1)c1nccc2ccccc12 (configuration not stated)
24.3% | NC(=O)c1ccc(NC(=O)COC(=O)c2ccc3ccccc3n2)cc1
? | NC(=S)N/N=C/c1ccc(-c2cc(Cl)cc(Cl)c2)o1
4.1% | O=C(C[C@@H]1C/C=C\C[C@H](NC(=O)OCC2c3ccccc3-c3ccccc32)C(=O)OC[C@@H]2CCCN2C1=O)N[C@@H](CO)Cc1ccccc1
-0.6% | CC1CCCN(C(=S)Nc2ccc(S(=O)(=O)N3CCCCC3)cc2)C1 (configuration not stated)
2.9% | O=C(NCC1CC1)c1ccc2c3n(nc2c1)-c1ccc(Cl)cc1CO3
50.1µM* | COc1ccc(/C=C2\N=C(C)OC2=O)cc1OC(C)=O
-6.9% | CS(=O)(=O)c1ccccc1C(=O)N1CCN(S(=O)(=O)c2ccc(C3CCCCC3)cc2)CC1
-9.5% | CC1(c2ccc(Cl)cc2)CC(C)(C)N(C(=O)c2cccc(F)c2)c2ccccc21 (configuration not stated)
5.7% | CC1Cc2ccccc2N1C(=O)CSc1nnc2n1C(C)(C)Cc1ccccc1-2 (configuration not stated)
? | CCOc1ccccc1N(C)C(=O)Cn1cnc2sc(C)c(S(=O)(=O)N3CCC(C)CC3)c2c1=O
-1.3% | COc1ccc(NC(=O)[C@H](C)NC(=O)[C@@H]2Cc3ccccc3CN2C(=O)OC(C)(C)C)cc1
-10.1% | CCc1c(C)nc2ncnn2c1NC1CCCc2ccccc21 (configuration not stated)
10.7% | CN(CCOc1ccccc1Cl)Cc1ccccc1
19.4% | COc1ccc(S(=O)(=O)CCc2nc3ccccc3s2)cc1
17.8% | O=C(Nc1cccc(F)c1)N1CC2(CCN(C(=O)c3ccncc3)CC2)C1
5.0% | CCN(CCCNC(=O)C1CCN(S(=O)(=O)c2c(C)[nH]c(=O)[nH]c2=O)CC1)c1cccc(C)c1
-92.8% | CC(C)=CCN1CCC(n2nccc2NC(=O)c2ccccc2Cl)CC1
-23.3% | NC(=O)COc1ccccc1C(=O)NC12CC3CC(CC(C3)C1)C2

Some of the entries so far, as tab-separated lines.
Structure	VDR inh
COc1ccc(NC(=O)[C@H](C)NC(=O)[C@@H]2Cc3ccccc3CN2C(=O)OC(C)(C)C)cc1	-1.3%
CCc1c(C)nc2ncnn2c1NC1CCCc2ccccc21 (configuration not stated)	-10.1%
CN(CCOc1ccccc1Cl)Cc1ccccc1	10.7%
COc1ccc(S(=O)(=O)CCc2nc3ccccc3s2)cc1	19.4%

Next entries follow:
VDR inh | SMILES
13.5% | Cn1cc(CCC(=O)NCc2cccc(Cl)c2)c2ccccc21
-2.6% | COc1ccccc1NC(=O)Nc1ccccc1C(N)=O
9.9% | CCOC(=O)c1ccc2[nH]cc(C(C)=O)c(=O)c2c1
-0.6% | CNC(=O)c1sc(Nc2ccc(OCc3ccccc3)cc2)nc1C
0.4% | CN(C)[C@H]1N(C(=O)c2ccc(Br)cc2)N=C2c3ccccc3S(=O)(=O)N21
-7.1% | CCOC(=O)c1[nH]c2ccc(Br)cc2c1NC(=O)CCN1CCCC(C)(C)C1
1.3% | COc1ccc(NC(=O)Cn2nnc(C(N)=O)c2N)c(OC)c1
28.2µM* | Cc1ccc(N=c2ssnc2Cl)cc1
? | COc1cccc(C(C)NC(=O)Cc2cccs2)c1 (configuration not stated)
2.5% | COc1ccc(S(=O)(=O)N2CCOCC2)cc1NC(=O)CSc1ncccn1
10µM* | CCCC[C@H]1C(=O)N(c2ccccc2)N(c2ccc(O)cc2)C1=O
-3.6% | CN(C)C(=O)c1ccc(-c2cc(-n3ccnc3)ncn2)cc1
? | CCc1ccccc1NC(=O)C1=CN2CCS(=O)(=O)N=C2C=C1
12.6% | O=C(CN1C(=O)c2ccccc2C1=O)c1ccccc1
3.2% | COc1cc(S(=O)(=O)N2CCOCC2)ccc1NC(=O)CSc1n[nH]c(=O)[nH]c1=O
-1.0% | CCN(C(=O)CSc1nc2ccccc2nc1Cc1ccccc1OC)c1ccccc1
11.0% | O=C(NCC1CCCC(CNC(=O)Nc2ccc(Cl)cn2)C1)Nc1ccc(Cl)cn1 (configuration not stated)
7.9% | CC(C)C(c1nnnn1C1CCCC1)N1CCN(C(=O)c2ccco2)CC1 (configuration not stated)
7.3% | Cc1ccc(-c2nc3ccsc3c(=O)[nH]2)cc1
13.7% | COc1ccc(Cl)cc1NC(=O)N(C)CCc1c(C)nn(C)c1C
1.9% | O=C(COC(=O)Cc1ccc(Cl)cc1Cl)NC1CC1

Bioassay records (PubChem)
